# VDR inh: vitamin D3 receptor (human) inhibition | VDR-SRC2-3 peptide fluorescence polarization, 2 h | Potency, µM, for inactives: max response, negative = inhibition, usual class: inhibitors | hit rate 0.93% among 400,000 | P11473 | AID 504847; active = well fitted inhibition curve with a large enough effect; inconclusive = small, poorly fitted or top-dose-only effect, or another doubt; inactive = no such curve, though single readings can be large or run the other way; also: series mostly up to about 120 µM
# Target sequence (P11473 whole entry, looked up): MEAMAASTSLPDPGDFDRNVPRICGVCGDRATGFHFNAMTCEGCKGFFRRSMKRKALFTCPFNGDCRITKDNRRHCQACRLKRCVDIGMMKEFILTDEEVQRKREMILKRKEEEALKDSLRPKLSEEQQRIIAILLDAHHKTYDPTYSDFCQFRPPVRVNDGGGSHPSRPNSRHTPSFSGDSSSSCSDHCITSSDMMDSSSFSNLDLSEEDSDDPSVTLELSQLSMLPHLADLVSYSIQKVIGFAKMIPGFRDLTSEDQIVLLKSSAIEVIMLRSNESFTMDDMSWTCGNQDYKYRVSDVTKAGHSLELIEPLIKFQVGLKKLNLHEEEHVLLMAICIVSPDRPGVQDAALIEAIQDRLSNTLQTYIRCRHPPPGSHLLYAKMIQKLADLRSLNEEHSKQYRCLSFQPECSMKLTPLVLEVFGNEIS
#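 Reagent solutions, kept cold and dark, are dispensed first; compounds are then pinned in at 23 nl, plates briefly spun, and incubated 2 h at ambient temperature. Inhibition of VDR–SRC2-3 peptide binding is read by fluorescence polarization.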
# * hit, by the source's call; ? = inconclusive; & = joins results of further samples. % is scaled to controls: 0 for no effect and ±100 for the full control effect; potency is read from the fitted curve at half-maximal effect.
SMILES | VDR inh
Cc1ccc(NS(=O)(=O)c2ccccc2)c([N+](=O)[O-])c1 | 9%
COc1cccc(CNc2nc3nc(C)c(Cl)c(C)n3n2)c1 | 5%
COc1cc(CCC(=O)OCC(=O)c2ccc[nH]2)cc(OC)c1OC | -7%
CC(C1CC2CCC1C2)n1c(-c2ccco2)n[nH]c1=S (centres undefined) | 79µM*
COc1ccc(C)cc1NC(=O)Cn1c(=O)c(C(F)(F)F)nc2ccccc21 | 4%
Cc1ccc2nsnc2c1NC(=S)NC(=O)c1ccco1 | -8%
COC(=O)C(Cc1ccccc1)P(=O)(c1ccccc1)c1ccccc1 (centres undefined) | -5%
CC(=O)Nc1ccc(S(=O)(=O)N(c2cccnc2)S(=O)(=O)c2ccc(NC(C)=O)cc2)cc1 | -14%

# The list continues.
SMILES | VDR inh
CCN1C(=O)c2cccc3c(S(=O)(=O)NCc4ccccn4)ccc1c23 | 4%
COc1ccc(Cl)cc1C=CC=Nc1ccccc1O | 89µM*
O=C(O)COc1ccc(C(=O)c2cccs2)c(Cl)c1Cl | -18%&-19%
COc1ccccc1C(=O)Nc1ccc(S(=O)(=O)N(C)c2ccccc2)cc1 | -21%
CC(C)C(=O)N1CCN(CCN=CC2=C(O)CC(c3ccco3)CC2=O)CC1 (centres undefined) | 17%&-14%
CN(Cc1nc(-c2cnccn2)no1)Cc1cccc2ccccc12 | -10%
Cc1cc(N2CCCCC2)nc2ccc(NC(=O)/C=C/c3ccc(OC(C)C)cc3)cc12 | -9%
CCc1ccc(C(=O)CN2C(=O)NC3(CCc4ccccc43)C2=O)cc1 (centres undefined) | -11%

# Later entries
SMILES | VDR inh
C=CCn1c(SCC(=O)Nc2nnc(C)s2)nnc1C1CC1 | -3%
CCN1C(=O)c2ccccc2Sc2ccc(NC(=O)Nc3ccc(Br)c(C)c3)cc21 | 2%
O=C(O)c1cccc(N2CCCC2=O)c1 | -4%
Cc1cc(SC2CCOC2=O)nc2ccccc12 (centres undefined) | 19%
Cc1cc(=O)[nH]c(SCC(=O)C23CC4CC(CC(C4)C2)C3)c1C#N | ?
O=C(NCc1cccnc1)c1cnc2n(c1=O)CCS2 | 12%
CCNC(=S)N1CCC(c2nc3cc(C)c(C)cc3[nH]2)CC1 | 14%
Cc1ccc(-n2c(C)c(C)c3c(NCCO)ncnc32)cc1 | 15%

# (more compounds)
SMILES | VDR inh
CCCN=C(Nc1ccc(Cl)cc1)c1cccnc1 | 4%
CCOC(=O)c1c(C)[nH]c(C(=O)CSc2ccccc2)c1C | 14%
CCc1cccc2c(-c3ccccc3)nc(SCC(=O)Nc3ccccc3OC)nc12 | 3%
CCOc1ccc(NC(=O)c2cccc(OC(=S)N3CCC(C)CC3)c2)cc1 | -10%
Cn1cnnc1SCC(=O)Nc1sc2c(c1C#N)CCCCC2 | 0%
Oc1ccc(-c2onc(C(F)(F)F)c2-c2cscn2)c(O)c1 | 1%
Cc1ccc(/C=C(\C#N)C(=O)NCc2ccco2)o1 | -13%
Cc1ccc(-n2c(=O)c(C#N)cc3c(=O)n4ccccc4nc32)cc1 | -17%

# (further entries)
SMILES | VDR inh
CC(=O)N[C@H](Cc1c[nH]c2ccccc12)C(=O)O | -26%
CC(=O)Nc1cc2c(cc1[N+](=O)[O-])-c1ccccc1C2=NO | -5%
COc1ccccc1NC(=O)Cn1c(CCC(=O)O)ccc1-c1ccc(C)cc1 | 1%
COC(=O)C=P(c1ccccc1)(c1ccccc1)c1ccccc1 | 9%
Cc1cc(C)c(C)c(S(=O)(=O)N2CCC(C(=O)N(C)Cc3nc4ccccc4c(=O)[nH]3)CC2)c1C | -1%
CC(=O)N1CCc2cc(S(=O)(=O)NC(CC(C)C)C(=O)NCCc3ccc(C)cc3)ccc21 (centres undefined) | 2%
Cc1ccc2[nH]c(CSc3nnc(NC(=O)COc4ccccc4)s3)cc(=O)c2c1 | 15%
O=C1c2ccccc2C(=O)N1c1ncccn1 | 10%

# Continued:
SMILES | VDR inh
CCc1ccc(NS(=O)(=O)c2cccs2)cc1 | 1%
CCN(CC)CCOCCOC(=O)C(CC)(CC)c1ccccc1 (tested in a mixture with another compound) | 0%
O=C(Cn1c(=O)oc2cc(S(=O)(=O)N3CCCCC3)ccc21)N1CCc2ccccc2C1 | -8%
CCc1cccc(CC)c1NC(=O)C1CN(S(=O)(=O)c2ccccc2)CCN1S(=O)(=O)c1ccccc1 (centres undefined) | -5%
CCOC(=O)c1c(C)nn(Cc2cccc(Cl)c2)c1N | 19%
C#CCC(NC(=O)c1ccc(C#N)cc1)C(=O)NCCC (centres undefined) | -6%
CC(C)(Oc1ccc(Cl)cc1)C(=O)Nc1cccc(-c2cn3cccnc3n2)c1 | 14%
Cc1cc(NC(=O)c2cc(-c3ccncc3)nc3ccccc23)ccc1Br | 10%

# New compounds follow
SMILES | VDR inh
O=C(CSc1nc2ccsc2c(=O)n1-c1ccccc1)N1CCCC1 | 1%
CCN(c1ccccc1)c1nc2ccsc2c(=O)s1 | 15%
O=C(CSc1nnc(COc2ccccc2F)n1-c1ccccc1)NC1CCS(=O)(=O)C1 (centres undefined) | -1%
COCCCN1CC(=O)N2C(c3cccc(C)c3)c3[nH]c4ccccc4c3C[C@H]2C1=O (some centres undefined) | -4%
O=C(c1cc(S(=O)(=O)N2CCOCC2)ccc1Cl)N1CCCCC1CO (centres undefined) | -17%
O=C(CC1C(=O)NCCN1Cc1ccc(-c2ccccc2)cc1)NCCCn1ccnc1 (centres undefined) | -6%
Cc1cccc(-c2noc(CCC(=O)NC3CCCC3)n2)c1 | -11%
COc1ccccc1C/C(N)=N/OC(=O)c1ccc(C)c([N+](=O)[O-])c1 | -4%

# Additional entries:
SMILES | VDR inh
COc1ccc(NC(=O)CC2C(=O)NCCN2C(=O)c2ccc(N(C)C)cc2)cc1 (centres undefined) | 21%
Cc1nc(C)c(N)c(=O)[nH]1 | 6%
Cc1ccc(-c2nsc3c(N4CCC(C(N)=O)CC4)ncnc23)cc1 | -12%
O=C(O)c1cccc2c1Cc1cc(Cl)ccc1-2 | -6%
CCOc1ccc(S(=O)(=O)N2CCN(C(=S)NC3CC3)CC2)cc1 | -8%
CC(C)NC(=O)c1onc(CSc2ccccn2)c1C(=O)NC(C)C | -7%
Cc1c(-c2ccccc2)nc(N)c(C#N)c1-c1cccnc1 | -5%
O=C1CC(c2ccccc2)CC(O)=C1C=NC1CCCC1 (centres undefined) | -1%

# A draw from above in order of formula weight, rising.
SMILES | VDR inh
Cc1nc(C)c(N)c(=O)[nH]1 | 6%
O=C(O)c1cccc2c1Cc1cc(Cl)ccc1-2 | -6%
COc1ccccc1C/C(N)=N/OC(=O)c1ccc(C)c([N+](=O)[O-])c1 | -4%
CC(C)NC(=O)c1onc(CSc2ccccn2)c1C(=O)NC(C)C | -7%
CCOc1ccc(S(=O)(=O)N2CCN(C(=S)NC3CC3)CC2)cc1 | -8%
COc1ccc(NC(=O)CC2C(=O)NCCN2C(=O)c2ccc(N(C)C)cc2)cc1 (centres undefined) | 21%

# (next part)
SMILES | VDR inh
COc1ccc(-c2cccc([C@H]3[C@@H]4C=CCC[C@@]4(C)C(=O)N3Cc3ccccc3)c2)cc1 | -27%
CCCn1c(N)c(C(=O)CN(C)CC(=O)Nc2cccc(F)c2)c(=O)[nH]c1=O | 6%
CCc1ccc(NC(=O)CSc2nc3ccccc3c(=O)n2CCNC(C)=O)cc1 | 12%
CCN(CC)CCCC(C)Nc1ccnc2cc(Cl)ccc12 (centres undefined) | 2%&1%
Cc1ccc(C(=O)NCc2ccccn2)cc1S(=O)(=O)N1CCCCC1 | 10%
COC(=O)CC1Oc2ccc(C)cc2-n2cc(-c3ccc(C)cc3)nc21 (centres undefined) | -23%
Cc1csc2ncc(C(=O)NCCC(c3ccccc3)c3ccccc3)c(=O)n12 | 3%
COc1ccc(C(=O)NC2CC(C)(C)Cc3c2cnn3-c2ccccc2)c(OC)c1 (centres undefined) | -3%

# The results go on.
SMILES | VDR inh
Cc1nn(Cc2ccc(Cl)cc2)c(C)c1N | -2%
CN(C(=O)c1cc(-c2ccc3c(c2)OCO3)on1)c1ccccc1 | -7%
COc1ccc(NC(=O)CN(Cc2ccccc2)S(C)(=O)=O)c(OC)c1 | 5%
N#Cc1ccc(OCC(=O)NCCCn2ccnc2)cc1 | -3%
CCn1cc(/C=C(\NC(=O)c2ccccc2Cl)C(=O)NCCN2CCOCC2)c2ccccc21 | -3%
CC(C)Cc1nn2c(=O)cc(COC(=O)c3ccccc3NC(=O)C3CCCCC3)nc2s1 | -3%
CN(Cc1ccc(Cl)c(Cl)c1)C(=O)C1=CC=CN2CCS(=O)(=O)N=C12 | -5%
NC(=O)c1nn(-c2ccccc2)nc1NC(=O)CN1CCOCC1 | -7%

# Further compounds follow.
SMILES | VDR inh
CCN1CCN(c2nc3ccccc3nc2C(C#N)S(=O)(=O)c2ccc(C)c(C)c2)CC1 (centres undefined) | -8%
CCCCn1c(N)c(N(CC(C)C)C(=O)C2CCN(S(=O)(=O)c3ccc(F)cc3)CC2)c(=O)[nH]c1=O | -10%
O=C(NCc1ccc(Cl)cc1)c1cc(=O)[nH]c2ccc(S(=O)(=O)N3CCOCC3)cc12 | -16%
CSc1ccc(CCNC(=O)Cn2ncc3c(=O)oc4ccc(C)cc4c32)cc1 | -20%
CCOc1[nH]n(-c2ccc(Cl)cc2)c(=O)c1C=NCc1cccnc1 | -11%
COC(=O)c1ccc(Cl)cc1NC(=O)N1CC(C)Oc2ccccc21 (centres undefined) | 6%
CCC(=O)N1CCc2cc(S(=O)(=O)NCCC(=O)N3CCN(c4cccc(C)c4)C(C)C3)ccc21 (centres undefined) | -12%
O=C(Cn1nc2ccccc2n1)N/N=C/c1ccc(F)cc1 | 5%

# Grouped by structure: those above with a CF3 group.
SMILES | VDR inh
COc1ccc(C)cc1NC(=O)Cn1c(=O)c(C(F)(F)F)nc2ccccc21 | 4%
Oc1ccc(-c2onc(C(F)(F)F)c2-c2cscn2)c(O)c1 | 1%

# (list continues)
SMILES | VDR inh
O=C(O)C1CC=CCC1C(=O)Nc1cccc(F)c1 (centres undefined) | 1%
CC12CN3CCN(CC(C3)/C1=N\NC(=O)Nc1cccc(Cl)c1)C2 | 13%
CC12CC3CC(C)(C1)CC(C(=O)NC(=S)N1CCCCC1)(C3)C2 | -10%
COc1cccc(CNC(=O)c2cc3c(=O)n(C)c4ccccc4c3n2C)c1 | 1%
Cc1cccc(NC(=S)NNC(=O)Cc2ccccc2)c1 | -5%
O=C(O)c1ccc(CSc2nc(-c3ccc(Cl)cc3)cc(C(F)(F)F)n2)cc1 | 0%
COc1ccc(OC)c(CN2CCC(CNC(=O)Nc3cccc(Cl)c3)CC2)c1 | -18%
Cc1ccccc1NC(=S)/C(=C(\[O-])c1cc(C)n(Cc2ccccc2Cl)c1C)[n+]1ccccc1 | -22%

# (continued)
SMILES | VDR inh
COc1ccc(C(=O)N2CCC(c3nc4ccccc4s3)CC2)cc1Cl | 9%
Cc1ccc(NC(=O)COc2ccc(N(C)C(=O)C(C)(C)C)cc2)cc1S(=O)(=O)N1CCCCC1 | 4%
CC1CCCN(C2=C(Cl)C(=O)N(c3cccc(Cl)c3)C2=O)C1 (centres undefined) | ?
COc1ccc(C(=O)C(=O)c2ccc(OCCO)cc2)cc1 | 19%
CCOC(=O)c1cccc(NC(=O)CSc2nc(N)cc(N)n2)c1 | -8%
Cc1ccc(S(=O)(=O)N(C)c2ccc(OCC(=O)NC3=NCCS3)cc2)cc1 | -16%
CC(C)(C)C1CCc2c(sc3nc(-c4cc5cc(Br)ccc5oc4=O)[nH]c(=O)c23)C1 (centres undefined) | 2%
COCCCNC(=O)C1CCN(c2ccc(N3CCOCC3)nn2)CC1 | -8%

# (next part)
SMILES | VDR inh
Cc1cccc(NC(=O)CSc2nnc(-c3ccccc3Br)o2)c1C | -3%
CC1(C)CC(=O)C(C(=O)C2CCN(S(=O)(=O)c3ccccc3)CC2)C(=O)C1 | 6%
CCCCC1(C)OC(=O)C(=Cc2ccc(-c3ccc(Cl)c(C(=O)O)c3)o2)C(=O)O1 (centres undefined) | 22µM*
COc1ccc(-c2noc(N3CCN(c4cccc(C)c4C)CC3)n2)cc1OC | 14%
Cc1nc2c(c(=O)c3ccccc3n2C)c(=O)n1-c1ccccc1 | 6%
CC(CNC(=O)CN1C(=O)c2cccnc2Oc2ccc(Cl)cc21)c1ccccc1 (centres undefined) | -10%&3%
Nc1nc(Cl)nc2c1ncn2[C@@H]1O[C@H](COP(=O)(O)OP(=O)(O)OP(=O)(O)O)[C@@H](O)[C@H]1O | 2%
COc1ccc(NC(=O)COc2ccc(Br)cc2)c(OC)c1 | 7%

# The list goes on.
SMILES | VDR inh
Oc1ccc(/C=N/N=C/c2ccc(O)c(O)c2)cc1O | -7%
CN(Cc1c(C(=O)N/N=C/c2cccc(O)c2)nnn1-c1nonc1N)C1CCCCC1 | -5%
CCOC(=O)c1c(C)oc2ccc(OCC(=O)N(CC)CC)cc12 | 2%
NC(=O)c1ccc(NC(=O)CCNC(=O)c2ccco2)cc1 | 21%
c1ccc(-c2nc(NCCCn3ccnc3)c3oc4ccccc4c3n2)cc1 | 21%
O=C(Cn1cccc1C(=O)c1ccccc1)NCCCc1ccccc1 | -21%
Cc1ccc(NC(=O)c2cc(NC(=O)c3ccco3)ccc2N2CCCCC2)cc1 | 4%
CCOC(=O)c1ccccc1NC(=O)CN(c1ccccc1)S(=O)(=O)c1ccc(OCC)cc1 | -11%

# Remaining list, next part:
SMILES | VDR inh
O=C(Cn1c(=O)n(Cc2ccc(C(=O)NCc3ccc4c(c3)OCO4)cc2)c(=O)c2ccccc21)Nc1ccc(F)cc1F | 2%
CC/C(=C/c1sc2ccc(C)cc2[n+]1CCO)SC | ?
CCCCc1nc(NCCNC(=O)c2ccco2)c(C#N)c2c1CSC(C)(C)C2 | ?
N#Cc1ccccc1COC(=O)c1ccc(Br)o1 | -6%
Brc1ccc(OCCCCN2CCCCC2)cc1 | 13%

# Source: PubChem BioAssay (National Center for Advancing Translational Sciences (NCATS))

# The list is partial; count on the stated rates, not on these rows.
